# From PubChem BioAssay
# HSD17B inh: qHTS Assay for Inhibitors of HSD17B4, hydroxysteroid (17-beta) dehydrogenase 4 | recombinant HSD17B10, NADH fluorescence kinetic; many of its hits are not listed in these tables | Potency, µM (top dose mostly 57.1 µM), for inactives: at the top dose activity change, negative = inhibition, usual class: inhibitors | 3-hydroxyacyl-CoA dehydrogenase type-2 (Homo sapiens), Q99714 | 75,000 tested, 7.6% active | AID 893, 2007; active = well fitted inhibition curve with a large enough effect; inconclusive = small, poorly fitted or top-dose-only effect; inactive = no such curve, though single readings can be large or run the other way;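 note: the protocol describes HADH2 (HSD17B10) and not the HSD17B4 of the title; nearly all actives have a fitted effect of over 70% in size; most hits overshoot -100% by far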
#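 Enzyme plus compound, 15 min room temperature; substrate mix added (NAD+ 1 mM, beta-hydroxybutyryl-CoA 90 uM final); plates read kinetically for NADH fluorescence. HADH2 was His-tagged, E. coli-derived, 20 nM.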
# * hit, by the source's call; i = inactive; ? = inconclusive; & = joins results of further samples; [ ] = another dose, or the depositor's remark. % is set by controls: 0 for no effect and ±100 for the full control effect; potency is the fitted concentration of half-maximal effect. Only part of the results is shown; rates above refer to the full screens.
SMILES,HSD17B inh
CCOC(=O)c1ccc(N2C(=O)CC(Sc3nc(O)c(CC)c(=O)[nH]3)C2=O)cc1 (stereo unspecified),-11%
O=C(N=c1nc2ccccn2s1)c1ccccc1,0%
COC(=O)[C@@]1(Cc2ccc(OC)cc2)[C@H]2c3cc(C(=O)N(C)C)n(Cc4cccc5ccccc45)c3C[C@H]2CN1C(=O)c1ccccc1,4%
Oc1ccc(Cl)cc1CNCC1CCCO1 (stereo unspecified),4%
Cc1ccc(-n2c(CNc3ccc(F)cc3)nnc2SCC(=O)N2CCCC2)cc1,-3%
c1ccc(-c2nnc(CN3CCCc4ccccc43)o2)cc1,-8%
Cc1c2c(nc3ccccc13)-c1cccc(=O)n1C2,7.9µM*
Cc1noc(C)c1C(=O)N1CCC2(CCCN(C(=O)NC(C)C)C2)CC1,9%
O=C1COc2ccccc2N1Cc1ccccc1Cl,-13%
CCOC(=O)C1CN(S(=O)(=O)c2ccc(C)cc2)CCN1S(=O)(=O)c1ccc(C)cc1 (stereo unspecified),-2%
CCN(CC(=O)NCc1cccs1)C(=O)c1cc(S(=O)(=O)N2CCOCC2)ccc1C,2%
CCCOc1ccc(N2CC(C(=O)Nc3ccccn3)CC2=O)cc1 (stereo unspecified),20%
OB(O)c1ccc(B(O)O)cc1,20%
C=C(C)C(O)/C=C/c1ccc(OC)cc1 (stereo unspecified),-7%[11.4 µM]
CCOC(=O)C1CCCc2c1[nH]c1c(C(=O)O)cccc21 (stereo unspecified),6%
Cn1nnnc1SCCNCc1cccc2ccccc12,2%
OC(COc1ccccc1)CSc1ncn[nH]1 (stereo unspecified),?
COc1ccc(N2CC(C(=O)Nc3ccc4c(c3)OCO4)CC2=O)cc1 (stereo unspecified),-9%
C=C(C)Cn1c(N2CCC(Cc3ccccc3)CC2)nc2c1c(=O)[nH]c(=O)n2C,0%
Cc1cc(C)nc(Sc2c(F)c(F)c(C(F)(F)F)c(F)c2F)n1,4%
COc1ccc(NC(=O)CSc2ccccn2)cc1OC,-5%
COc1ccccc1CN1C(=O)CCC1(C)C(=O)NC1CCCCCC1 (stereo unspecified),-3%
C=CCN=C1SCC(=O)N1S(=O)(=O)c1ccccc1,-6%
Cc1ccc(CNC(=O)CS(=O)Cc2nc(-c3ccccc3C)oc2C)cc1 (stereo unspecified),-13%
c1ccc(-n2nnnc2Sc2n[nH]c(-c3ccncc3)n2)cc1,-3%
CCn1ncc(Br)c1C(=O)Nc1ccc(F)cc1F,2%
Cc1[nH]c(=O)c(C#N)cc1-c1ccc2nccn2c1,?
CCc1ccc2[nH]c(=O)c(C(c3nnnn3CC3CCCO3)N3CCCc4ccccc43)cc2c1 (stereo unspecified),6%
O=C(O)CCn1[nH]c(=O)ccc1=O,-2%
CCN1CCN(c2nc3c(c(=O)n(C)c(=O)n3C)n2CCSc2nccc(C)n2)CC1,-1%
Nc1nc(SCc2ccc3c(c2)OCO3)n[nH]1,3%
Cc1ccc(Nc2nc3nonc3[nH]c2=O)cc1,-8%
CC(NS(C)(=O)=O)C(c1cccs1)N1CCN(c2ccccc2)CC1 (stereo unspecified),-30%
CCC(=O)Nc1nc2c(OC)ccc(OC)c2s1,2%
CC1=NCCN1S(=O)(=O)c1ccc(Br)c(C)c1,6%
CCOC(=O)c1cc(-c2ccc(N)cc2)sc1N,-22%
O=C(CSc1nnc(CNc2ccccc2)o1)c1ccc2c(c1)OCCO2,-5%
CC1CCCCC1NC(=O)c1ccc2c(c1)[nH]c(=O)n2C1CCCC1 (stereo unspecified),0%
COC(=O)Cc1c(C)c2c(OCc3nn[nH]n3)cc(C)cc2oc1=O,25µM*
CCOc1ccc(C2c3c(oc4ccccc4c3=O)C(=O)N2c2ccccn2)cc1OC (stereo unspecified),-5%
O=C1NC(c2ccccc2Cl)Nc2ccccc21 (stereo unspecified),32µM*
O=S(=O)(c1ccc2c(c1)OCCCO2)N1CCNCC1,13%
CCOC(=O)CSc1nnc(C)n1N,8%
CCCn1c(SCC(=O)N2CCCc3ccccc32)nnc1-c1ccccn1,-1%
Cc1ccc(NC(=O)CSc2nnc(-c3ccccc3C)o2)cc1C,10%
Cc1nc2cnc(OCc3ccccc3)nc2n(CCc2ccccc2)c1=O,-2%
CCCOc1cc(N)ccc1C(=O)OCCN(CC)CC,-5%[25.6 µM]
Cc1ccccc1C(NC(N)=O)c1ccccc1 (stereo unspecified),14%
O=C(O)c1cccc(COc2ccc(CO)cc2Cl)c1,-2%
O=C(OCCN1CCOCC1)C1(c2ccccc2)CCCCC1,3%&-1%

# Other entries
SMILES,HSD17B inh
CCOC(=O)CSc1nc(N)c(C#N)c(CC(C)C)c1C#N,?
CCN(CCCNS(=O)(=O)c1ccc2c(c1)oc(=O)n2C)c1cccc(C)c1,3%
Cc1nc2cc(NC(=O)N3c4ccccc4CC3C)ccc2o1 (stereo unspecified),-3%
COc1cccc(NC(=O)COC(=O)c2cccnc2)c1,11%
CCOC(=O)CSc1nc2cc(OCC)ccc2cc1C#N,25µM*
CC(C)N=C1SCC(C)(/C=N/O)S1 (stereo unspecified),10%
CC1CCc2cc(F)cc3c(=O)c(C(=O)O)cn1c23 (stereo unspecified),3%
Cc1ccc(S(=O)(=O)c2n[nH]n3c2nc(=O)c2ccccc23)cc1,32µM*
Cc1[nH]nc2c1C1(CCC(c3ccccc3)CC1)C(C#N)=C(N)O2 (stereo unspecified),-5%
O=C(O)c1ccc2c(c1)C(=O)N(Cc1ccccc1)C2=O,0%
C=CCNC(=O)c1ccccc1NC(=O)c1ccccc1,0%
COc1cc(OC)c(OC)cc1CNc1cc(C)ccc1OC,-10%
O=C(CSc1nnc(-c2cccs2)o1)c1cccs1,-15%
CN(C)S(=O)(=O)NC(c1ccccc1)c1ccccc1,-4%
Cc1occc1C(=O)NC(C)C1CCCO1 (stereo unspecified),15%
Cc1cccc(N2CCN(C(=O)Cn3sc4nc(C)cc(C)c4c3=O)CC2C)c1 (stereo unspecified),13µM*
CCN1CCN(C(=O)C2CCN(S(=O)(=O)c3cccc4cccnc34)CC2)CC1,4%
Cc1ccc(C(=O)CSc2nnc(COc3cc(C)cc(C)c3)o2)cc1,-7%
COc1cc(NC(=O)c2cc(-c3cccs3)on2)cc(OC)c1OC,-4%
CCOC(=O)c1c(NC(=O)c2cccs2)sc(C)c1CC,25µM*
COc1cccc(-c2nc(NCc3cnc(C)cn3)c3ccccc3n2)c1,-8%
CN(C)/C=N/c1ncnc2c1cnn2-c1ccc(C(F)(F)F)cn1,11%
COc1ccccc1N1CCN(C(=O)c2cc3c(=O)n(C)c4ccccc4c3n2C)CC1,10%
Nc1nnc(SCCN2C(=O)c3ccccc3S2(=O)=O)s1,0%
COc1ccc(C2=NO[C@@H]3C(=O)N(c4ccc(C)cc4C)C(=O)[C@H]23)cc1OC,-20%
O=C(O)CC(c1ccc(Cl)cc1)N1C(=O)CCC1=O (stereo unspecified),2%
Cc1nn2c(=O)cc(CSc3nc4ccccc4[nH]3)nc2s1,2%
c1ccc(-c2ccc(CN3C[C@@H]4C(c5ccccc5)C5(c6ccccc6)CC4(C5)[C@H]3c3ccccc3)cc2)cc1 (stereo partly specified),1%
COc1ccc(S(=O)(=O)N(Cc2cc3ccc(OC)cc3[nH]c2=O)CC2COCCO2)cc1 (stereo unspecified),i
CCOC(=O)c1ccc(NC(=O)C2CCCN(S(=O)(=O)c3cnc[nH]3)C2)cc1 (stereo unspecified),3%

# A run of entries of the results above:
SMILES,HSD17B inh
Cn1nnnc1SCCNCc1cccc2ccccc12,2%
OC(COc1ccccc1)CSc1ncn[nH]1 (stereo unspecified),?
COc1ccc(N2CC(C(=O)Nc3ccc4c(c3)OCO4)CC2=O)cc1 (stereo unspecified),-9%
C=C(C)Cn1c(N2CCC(Cc3ccccc3)CC2)nc2c1c(=O)[nH]c(=O)n2C,0%
Cc1cc(C)nc(Sc2c(F)c(F)c(C(F)(F)F)c(F)c2F)n1,4%
COc1ccc(NC(=O)CSc2ccccn2)cc1OC,-5%
COc1ccccc1CN1C(=O)CCC1(C)C(=O)NC1CCCCCC1 (stereo unspecified),-3%
C=CCN=C1SCC(=O)N1S(=O)(=O)c1ccccc1,-6%
Cc1ccc(CNC(=O)CS(=O)Cc2nc(-c3ccccc3C)oc2C)cc1 (stereo unspecified),-13%
c1ccc(-n2nnnc2Sc2n[nH]c(-c3ccncc3)n2)cc1,-3%
CCn1ncc(Br)c1C(=O)Nc1ccc(F)cc1F,2%
Cc1[nH]c(=O)c(C#N)cc1-c1ccc2nccn2c1,?
CCc1ccc2[nH]c(=O)c(C(c3nnnn3CC3CCCO3)N3CCCc4ccccc43)cc2c1 (stereo unspecified),6%
O=C(O)CCn1[nH]c(=O)ccc1=O,-2%
CCN1CCN(c2nc3c(c(=O)n(C)c(=O)n3C)n2CCSc2nccc(C)n2)CC1,-1%
Nc1nc(SCc2ccc3c(c2)OCO3)n[nH]1,3%
Cc1ccc(Nc2nc3nonc3[nH]c2=O)cc1,-8%
CC(NS(C)(=O)=O)C(c1cccs1)N1CCN(c2ccccc2)CC1 (stereo unspecified),-30%

# Following part
SMILES,HSD17B inh
CCCOc1ccc(N2CC(C(=O)Nc3ccc4c(c3)OCO4)CC2=O)cc1 (stereo unspecified),6%
Cc1nc(P(=O)(c2ccccc2)c2ccccc2)c(N2CCOCC2)o1,0%
CN1C(=O)CC(N2CCN(C(=O)CN3CCCC3)CC2)C1=O (stereo unspecified),-15%
COc1ccc(-c2nc(CSCC(=O)NCc3ccco3)c(C)o2)cc1,?
O=C1CCCN1c1ccc(CNS(=O)(=O)c2ccc(F)cc2)cc1,-1%
CCc1nnc(NC(=O)c2ccc(S(=O)(=O)N(CC(C)C)CC(C)C)cc2)o1,-5%
COc1ccc(OC)c(S(=O)(=O)N2CCC(C(=O)NC(C)c3ccccc3)CC2)c1 (stereo unspecified),2%
O=S(=O)(Nc1nc2ccccc2[nH]1)c1ccc(Cl)cc1,9%
CCN(CC)c1ccc(NC(=O)c2cc3ccccc3o2)c(C)c1,3%
O=C(COc1ncnc2ccccc12)NCCC1=CCCCC1,-4%
COc1ccc(C2=NO[C@@H]3C(=O)N(c4ccc5c(c4)OCCO5)C(=O)[C@H]23)cc1OC,-8%
O=C(c1cccn2c(=O)c3cc(Br)ccc3nc12)N1CCN(c2ccccn2)CC1,-8%
COC(=O)c1[nH]c2ccc(Br)cc2c1NC(=O)C(C)N1CCN(C2CCCCC2)CC1 (stereo unspecified),-15%
CCOC(=O)CCN1C(=O)[C@H]2[C@H]3[C@H](O)[C@H](O)C/C(=N/OCc4ccccc4)[C@H]3CC[C@@H]2C1=O,-3%[11.4 µM]
Cc1nnc2c3cnn(-c4ccc(Cl)cc4)c3ncn12,1%
Cn1ccnc1SCC(=O)Nc1cccc(C(F)(F)F)c1,-9%
CC1CCCCN1C(=O)Cc1ccc(F)cc1 (stereo unspecified),-2%
Cc1nc2ccc(NC(=O)N3CCN(c4ccccn4)CC3)cc2s1,?
COc1cccc(C(=O)N2CCN(C(=O)c3cccc4ccccc34)CC2)c1OC,-3%
O=c1ccnc(SCc2ccccc2Cl)[nH]1,5%
O=S(=O)(NCc1ccc2c(c1)OCO2)c1ccc2c(c1)oc1ccccc12,-5%
COc1ccccc1-n1cnnc1SCC(=O)N1CCN(S(=O)(=O)c2ccccc2)CC1,-1%
CC(c1ccccc1)n1cc(C(=O)NCC2CCCO2)nn1 (stereo unspecified),3%
CCN(CC)C(=O)CSc1nnc([C@H](Cc2c[nH]c3ccccc23)NC(=O)OC(C)(C)C)o1,0%
CCCN1C(=O)c2ccc(C(=O)NC3=NCCS3)cc2C1=O,-1%
CSc1ccc(S(=O)(=O)Nc2ccc(F)cc2)cc1,-1%
CCCn1c(-c2ccc(F)cc2)nc2c(N3CCN(CCC(=O)OCC)CC3)nc(C)nc21,-9%
Cc1ccccc1-n1c(SC(C)C(N)=O)nnc1-c1cccnc1 (stereo unspecified),2%
O=C(NC12CC3CC(CC(C3)C1)C2)N1CCCC(CO)C1 (stereo unspecified),-6%
CS(=O)(=O)N1CCN(C(=O)c2ccc(F)cc2)CC1,1%
N#Cc1c(-c2ccco2)cc(-c2cccnc2)nc1N,25µM*
Cc1ccc(NC(=O)c2cc(NC(=O)c3ccco3)ccc2N2CCOCC2)cc1,178%[activator]
COc1cccc(-c2cncnc2NCc2cccs2)c1,-15%
CCOC(=O)N1CCN(C(=O)CSc2ncnc3ccccc23)CC1,2%
Cc1cccc(OCc2nnc(SCC(=O)Nc3ccc(C)c(Cl)c3)o2)c1,3%
Cc1csc2ncc(C(=O)Nc3ccc4c(c3)OCCO4)c(=O)n12,?
C=CCn1c(SCc2ccc(C(=O)OC)cc2)nnc1-c1sc(N)nc1C,4%
c1ccc(COc2ccc(CNn3cnnc3)cc2)cc1,17%
Cc1nc(NC2=NCN(CCN3CCOCC3)CN2)nc2c(C)cccc12,2%
CCN(CC)S(=O)(=O)c1ccc2c(c1)c(=O)c(C(=O)N1CCN(c3ccccc3)CC1)cn2C,6%
O=C(Nc1ccccc1F)c1cc(S(=O)(=O)N2CCCCC2)cs1,-5%
CCN(CC)CCN1C(=O)c2ccccc2NC1c1cccc(F)c1 (stereo unspecified),32µM*
CC(=O)c1c(C)[nH]c(C(=O)NCCc2cccc(C)c2)c1C,8%
CCCCCCCCCCCCCCSCC(=O)O,?
CCCCCSc1nc2c(c(=O)[nH]c(=O)n2C)n1C(C)C,-6%
O=C(c1ccccc1)c1cccn1CC(=O)N1CCN(c2ccccc2)CC1,-6%
C/C(N)=C(/C#N)C(=O)CSc1nc(C2CCCCC2)n(-c2ccccc2)n1,-8%
Cc1ccc(CNC(=O)C2CC(=O)OC23CCCC3)c(C)c1 (stereo unspecified),-9%
